# Compound activity deposited in PubChem BioAssay by National Center for Advancing Translational Sciences (NCATS).
# hNpr1 antagonist – antagonists of human natriuretic peptide receptor Npr1; HEK293 hNpr1 GloSensor cGMP, ANP-stimulated luminescence; Potency, µM (titrated, usually from 46.3 µM), without a hit: top-dose activity change, negative = inhibition, usual class: inhibitors; 1.6% of 76,000 active; AID 1347048; active = well fitted inhibition curve with a large enough effect; inconclusive = small, poorly fitted or top-dose-only effect; inactive = no such curve, though single readings can be large or run the other way;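 further: nearly all actives have a fitted effect of over 60% in size; nearly all hits also lower the signal before the agonist is added; a reference antagonist and vehicle were the controls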
# Target sequence (P16066 whole entry, looked up): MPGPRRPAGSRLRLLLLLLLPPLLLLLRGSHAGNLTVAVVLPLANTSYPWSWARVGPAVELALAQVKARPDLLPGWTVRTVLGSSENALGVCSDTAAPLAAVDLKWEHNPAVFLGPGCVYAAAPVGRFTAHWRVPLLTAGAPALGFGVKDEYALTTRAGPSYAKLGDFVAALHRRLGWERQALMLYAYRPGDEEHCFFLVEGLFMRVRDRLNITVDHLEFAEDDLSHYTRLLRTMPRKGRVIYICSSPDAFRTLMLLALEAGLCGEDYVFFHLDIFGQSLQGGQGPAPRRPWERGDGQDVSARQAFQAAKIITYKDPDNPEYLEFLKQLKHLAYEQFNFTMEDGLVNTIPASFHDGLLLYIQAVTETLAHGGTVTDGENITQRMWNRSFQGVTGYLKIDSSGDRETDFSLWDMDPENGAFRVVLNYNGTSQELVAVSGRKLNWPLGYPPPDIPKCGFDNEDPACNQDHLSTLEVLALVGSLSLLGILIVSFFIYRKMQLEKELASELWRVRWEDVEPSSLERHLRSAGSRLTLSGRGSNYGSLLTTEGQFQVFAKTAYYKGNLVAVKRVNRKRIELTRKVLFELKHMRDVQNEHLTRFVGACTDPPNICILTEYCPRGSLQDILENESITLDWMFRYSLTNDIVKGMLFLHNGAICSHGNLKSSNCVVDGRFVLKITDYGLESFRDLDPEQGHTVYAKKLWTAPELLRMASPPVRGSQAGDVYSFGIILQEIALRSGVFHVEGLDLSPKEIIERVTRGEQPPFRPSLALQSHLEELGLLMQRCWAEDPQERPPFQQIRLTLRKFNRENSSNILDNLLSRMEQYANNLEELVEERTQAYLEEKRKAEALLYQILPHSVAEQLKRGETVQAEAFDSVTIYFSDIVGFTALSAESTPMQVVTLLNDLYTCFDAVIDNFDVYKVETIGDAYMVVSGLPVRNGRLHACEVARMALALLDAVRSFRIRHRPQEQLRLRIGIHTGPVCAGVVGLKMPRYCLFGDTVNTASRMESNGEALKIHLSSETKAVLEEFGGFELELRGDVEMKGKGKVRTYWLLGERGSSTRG
#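 HEK293 cells stably expressing human Npr1 and cGMP GloSensor pGS-40F, loaded 2 h with 2% GloSensor reagent, given compound 30 min at room temperature. Luminescence read before and 20 min after 0.1 nM hNppA.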
# Active calls of the source: *; ? = inconclusive; [ ] = dose if it differs, or a comment. On the % scale 0 is the no-effect control and ±100 the full control effect; potency means the concentration at half of the fitted maximal effect.
SMILES,hNpr1 antagonist
COc1ccc(NC(=O)c2ccc(CN3C(=O)NC4(CCOCC4)C3=O)cc2)cc1,-24%
Cn1nccc1C(=O)NCC1Cn2cccc2C(=O)N1Cc1ccccc1 (stereo unspecified),0%
Cc1noc(-c2ccn3c(CNC(=O)c4ccc5ccccc5n4)nnc3c2)n1,1%
CS(=O)(=O)N1CCCN(C(=O)Nc2ccccc2F)CCNC(=O)CC1c1ccccc1 (stereo unspecified),-1%
Cc1ccc(S(=O)(=O)N(C)CC2CCOCC2)cc1C,-12%
CC(=O)c1ccc(NC(=O)N[C@@H]2C=C(C(=O)N[C@H](C)C(N)=O)C[C@@H](O)[C@@H]2O)cc1,9%[70.6 µM]
COCCn1c(CO)nnc1C1CC(NC(=O)c2c(C)noc2C)C1 (stereo unspecified),0%
Cc1ccc(C(=O)N2CCCN(c3cc(-c4ccc(F)cc4)[nH]n3)CC2)cc1,-19%
O=C(O)c1ccccc1C(=O)N1Cc2[nH]cnc2C[C@H]1c1nc(-c2ccc(C(F)(F)F)cc2)no1,-8%
Cc1ccc2nc(CO[C@H]3CN(c4ccc(C#N)cn4)C[C@H]3F)[nH]c2c1,-2%[70.6 µM]
O=C1c2cc(N3CCOCC3)nc(-c3ccc(F)cc3)c2CN1Cc1ccccc1,-22%[70.6 µM]
CN(C)C(=O)c1ccc(OC2CCN(C(=O)c3ccc(Cl)cc3)CC2)nc1,-17%
COc1ccc(NC(=O)CCc2ccnc(N3CCCC3)c2)c(OC)c1,-5%
COc1ccc(C(=O)N2CCC3(CC2)OC(=O)N(Cc2ccccc2F)C3(C)c2ccccc2)cc1 (stereo unspecified),2%
Cc1nc(CC2CCN(Cc3cc4n(n3)CCNC4)CC2)no1,7%
CN1C[C@@H]2CCCN3CCC[C@@H]([C@H]23)[C@H]1CCCC(=O)NCCc1nc2ccccc2[nH]1,1%
CC(C)(C)N1CC(c2nc(-c3ccc4nc[nH]c4c3)no2)CC1=O (stereo unspecified),2%
Cc1cc(C)cc(C(=O)N2CCCC(n3cc(-c4noc(C)n4)nn3)C2)c1 (stereo unspecified),-15%
COc1ccc(C(=O)Nc2nc3c(s2)C[C@@H]2[C@](C)(CO)[C@H](O)CC[C@@]2(C)[C@@H]3CC(=O)N2CCOCC2)cc1,-5%
CNC(=O)[C@@H]1C[C@H](n2cc(CNC(=O)Nc3cccc(Cl)c3)nn2)CN1,0%
NC(=O)c1noc2c1CN(c1cc(-c3ccccc3)nc3ccnn13)CC2,-21%
O=C(c1cn2ccsc2n1)N1CC[C@@H](c2ccc3c(c2)OCO3)[C@H](O)C1,-7%
COc1cccc(CC(=O)N2CCCC(c3noc(COc4ccccc4F)n3)C2)c1 (stereo unspecified),?
COc1ccccc1-c1nc2nccc(-c3cc4ccccc4o3)n2n1,-10%
Cc1nn2c(c1-c1ccccc1-c1ccccc1)N(C(=O)c1ccn(C)n1)CCC2,5%[70.6 µM]
CN1c2cc(C(=O)N3CCN(c4ccccc4F)CC3)ccc2C(=O)N2CCCC21 (stereo unspecified),0%
O=C(CCCc1ccccc1)N1CCCC(c2nc(C3CCOCC3)no2)C1 (stereo unspecified),0%
CC1(C)C(=O)N(CCOc2ccccc2)[C@H]2CN(c3cccc(C(F)(F)F)c3)C[C@@H]2[S+]1(=O)[O-],2%
c1ccc(CN2CCC[C@H]2c2nc(-c3ccc(OC4CCCCC4)nc3)no2)nc1,?
CCC[C@H]1CN(C(=O)c2ccc3c(c2)NC(=O)CN3)C[C@@H]1N,5%
COc1cccc(NC(=O)Cn2nc3c(cc2=O)CCCC3)c1,-3%
Cn1cnc(S(=O)(=O)N[C@@H]2[C@@H](Cc3ccccc3)[C@H]3OCC[C@@H]23)c1,0%
CCOCC(=O)N1CCC(N2C(=O)CCC2C(=O)NCc2ccccc2)CC1 (stereo unspecified),0%
CCCc1cc(C(=O)N2CCCC3(CCC(=O)N(CCOC)C3)C2)cs1 (stereo unspecified),3%
CCc1nc2c(c(-c3ccc(O)cc3)n1)CCN(C(=O)Nc1ccccc1)CC2,0%
CCOc1cc(-c2c(-c3ccccc3)ncn2CCNC(C)=O)ccc1OC,-4%
O=C1NC2(CCN(Cc3ccccc3)C2)OCc2ccccc21 (stereo unspecified),3%[70.6 µM]
COc1ccc(N2C(=O)C3(CCCCC3)C2C(=O)NCCCN2CCCC2)cc1 (stereo unspecified),8%
COc1ccc(CN2CCc3nc(C(=O)NCc4cccc(F)c4)oc3CC2)cc1OC,-12%
Cc1noc(C)c1CCC(=O)N1CCCC(CCc2cccc(F)c2)C1 (stereo unspecified),-20%

# Structures shown so far that have an NH in an aromatic ring:
SMILES,hNpr1 antagonist
Cc1ccc(C(=O)N2CCCN(c3cc(-c4ccc(F)cc4)[nH]n3)CC2)cc1,-19%
O=C(O)c1ccccc1C(=O)N1Cc2[nH]cnc2C[C@H]1c1nc(-c2ccc(C(F)(F)F)cc2)no1,-8%
Cc1ccc2nc(CO[C@H]3CN(c4ccc(C#N)cn4)C[C@H]3F)[nH]c2c1,-2%[70.6 µM]
CN1C[C@@H]2CCCN3CCC[C@@H]([C@H]23)[C@H]1CCCC(=O)NCCc1nc2ccccc2[nH]1,1%
CC(C)(C)N1CC(c2nc(-c3ccc4nc[nH]c4c3)no2)CC1=O (stereo unspecified),2%

# The list goes on.
SMILES,hNpr1 antagonist
CCCCc1nc(Cl)c(CN2CCCC(COc3ccccc3C(=O)NC3CC3)C2)[nH]1 (stereo unspecified),-1%
O=C1COc2ccc(Nc3ccccc3)nc2CN1Cc1ccccc1,-3%[70.6 µM]
COc1cccc(C(=O)N2CC(Oc3cccc(-c4nc(-c5ccccc5)no4)c3)C2)c1,-4%
O=C(CN1C(=O)NC2(CCCCC2)C1=O)N1CCCCC1,1%
COc1ccc(CN2CCCC(C)(NC(C)=O)C2)c2ccccc12 (stereo unspecified),-3%[70.6 µM]
Cn1ncc(N2CCCC(CC(=O)N3CCCCCC3)C2)cc1=O (stereo unspecified),-19%
O=C(NC1CCN(c2cc(-c3cccs3)[nH]n2)C1)c1ccc2nc[nH]c2c1 (stereo unspecified),0%
COc1ccc(C2Cn3nnc(C(=O)N4CCN(C(=O)CCc5ccccc5)CC4)c3CO2)cc1 (stereo unspecified),?
CCc1nnc([C@@H]2CC(F)(F)CN2C(=O)C2CC2)o1,3%
CN(C)c1cccc(-c2n[nH]c3c2CC(=O)N(CC2CC2)C3)c1,-11%[70.6 µM]
CNC(=O)[C@@H]1C[C@@H](O)CN1C1CCN(C(=O)CC2CCCC2)CC1,6%
O=c1[nH]c(-c2ccc(F)cc2)nc2c1CCN(S(=O)(=O)c1cccs1)C2,-5%
CC(C)CN[C@H]1[C@H](O)[C@H](O)C[C@@H]1c1ccncc1,1%[70.6 µM]
CC(NC(=O)c1ccc(OC2CCN(S(=O)(=O)N(C)C)CC2)cc1)c1cccs1 (stereo unspecified),-2%
O=C(NCc1ccnc2[nH]ccc12)c1ccccc1F,2%[70.6 µM]
Cn1cc(CN(Cc2c(C(=O)N3CCCC3)nc3sccn23)C2CC2)cn1,-2%
Cc1ccc(C2Cn3nnc(C(=O)N4CCC(C(=O)NC5CCc6ccccc65)CC4)c3CO2)cc1 (stereo unspecified),-2%
NC(=O)C1CCCN(CC(=O)Nc2nc3ccccc3[nH]2)C1 (stereo unspecified),7%
Cc1cccc(OCC(=O)N2CCC3(CC2)NC(=O)N(Cc2ccccc2)C3=O)c1,-17%
CCOC(=O)c1cccc(NC(=O)c2c(OC)cc(=O)n3c2CCCC3)c1,-1%
COc1cccc(CNc2cc(Cl)nc3ccnn23)c1,?
O=C(c1ccccc1)N1CCCC(c2nn(-c3ccccc3)c(=O)[nH]2)C1 (stereo unspecified),28%
O=C(CCC[C@H]1NC[C@@H]2C[C@H]1CN(Cc1ccccc1)C2)NCc1cc(F)cc(F)c1,1%
COc1ccccc1-n1nc(Cc2ccccc2)n(CC(=O)NC(C)C2CC2)c1=O (stereo unspecified),-3%
CC(C)CCN1C(=O)CC[C@]2(C(=O)N3CCC(C)CC3)CCCC[C@@H]12,-7%
COc1ccc(-c2nc(C(C)C)nc3c2CCN(C(=O)Cc2cccc(Cl)c2)CC3)cc1,-11%
CN(CCC1CCOCC1)C(=O)c1ccc2oc(-c3cccc(F)c3)nc2c1,-3%
COC[C@H]1C[C@@H](NC(=O)C2CCOCC2)[C@H](O)[C@@H]1O,1%[70.6 µM]
O=C(Cn1cccc1-c1nc(-c2ccc3c(c2)OCO3)no1)Nc1cc(F)cc(F)c1,-3%
Cc1cccc(CNC(=O)C2CCN(c3cn[nH]c(=O)c3)C2)c1 (stereo unspecified),3%
COC(=O)CNC(=O)N1CCC(Cc2noc(-c3ccc(OC)cc3)n2)C1 (stereo unspecified),-21%
O=C(c1ccc2[nH]ccc2c1)N1CCCC(Cc2noc(-c3cnccn3)n2)C1 (stereo unspecified),4%
CCn1nc(C)c(-c2cc(C(=O)N3CCCCCCNC(=O)CC3)no2)c1C,-7%
CC(C)CN1CC[C@H](c2nc3ncccc3[nH]2)C1,3%[70.6 µM]
O=C(c1cccc2[nH]ccc12)N1CC[C@@H]2COCCN(Cc3ccncc3)[C@@H]2C1,1%
COc1ccc(N2CC(C(=O)N(C)C)NC2=O)cc1 (stereo unspecified),0%[70.6 µM]
CCOc1cccc(CN2C(=O)C3(CCOCC3)CC2c2nnnn2C(C)(C)C)c1 (stereo unspecified),9%
COC(=O)C1=C(C)N=C2SC=C(CC(=O)N3CCCC3)N2C1c1ccc(OC)cc1 (stereo unspecified),-6%
COc1ccc(C(=O)N2CCC(N3CC4CC(C3)[C@H]3CCCC(=O)N3C4)CC2)c(C)c1 (stereo partly specified),1%
CNc1cc(C)nc(N2CCN(Cc3ccc(C)cc3)C(CCO)C2)n1 (stereo unspecified),-12%

# Individual results from the list:
# `O=C(Cn1cccc1-c1nc(-c2ccc3c(c2)OCO3)no1)Nc1cc(F)cc(F)c1` in hNpr1 antagonist has -3%
# `CC(C)CN1CC[C@H](c2nc3ncccc3[nH]2)C1` in hNpr1 antagonist has 3%[70.6 µM]

# Given tab-delimited: two of the compounds above.
SMILES	hNpr1 antagonist
COc1ccc(N2CC(C(=O)N(C)C)NC2=O)cc1 (stereo unspecified)	0%[70.6 µM]
CC(C)CCN1C(=O)CC[C@]2(C(=O)N3CCC(C)CC3)CCCC[C@@H]12	-7%

# 3 entries from above in a different format.
hNpr1 antagonist	smiles
-12%	CNc1cc(C)nc(N2CCN(Cc3ccc(C)cc3)C(CCO)C2)n1 (stereo unspecified)
3%	Cc1cccc(CNC(=O)C2CCN(c3cn[nH]c(=O)c3)C2)c1 (stereo unspecified)
-7%	CC(C)CCN1C(=O)CC[C@]2(C(=O)N3CCC(C)CC3)CCCC[C@@H]12

# (listing goes on)
SMILES,hNpr1 antagonist
Clc1ccc(C2Cn3nnc(-c4noc(C5CCC5)n4)c3CO2)cc1 (stereo unspecified),-27%
C=CCNC(=O)N[C@H]1C[C@H]2C(=O)Nc3ccc(-c4cccs4)cc3C(=O)N2C1,-10%[70.6 µM]
CCn1ncc(N2CCC(NC(=O)C(C)(C)C)CC2)cc1=O,10%
CCc1nc2c(c(-c3ccc(Cl)cc3)n1)CCN(Cc1cccn1C)CC2,0%
O=C(CN1CCCn2nc(CO)cc2C1)NCCc1ccccc1,0%
CN(C)C[C@@H]1CN(c2ncccn2)C[C@H]1NC(=O)c1cnn(C)c1,7%
CCNC(=O)N1CCCCCCNC(=O)[C@@H]2CCC[C@@H]21,-1%
CC(=O)N1CCC(c2nn(-c3ccccc3)c(=O)[nH]2)CC1,0%[70.6 µM]
COC(=O)N1CCC2(CC1)C(=NC1CCCC1)NC(=O)N2c1cc(F)cc(F)c1,0%
CC1(C(=O)N2CCN(c3ccccn3)CC2)CCc2cnc(NCc3ccccc3)nc21 (stereo unspecified),-8%[70.6 µM]
CNC(=O)N1CCC(C2CCN(C(=O)C3(C)CCCCC3)C2)CC1 (stereo unspecified),3%
COc1ccccc1C(=O)N1CC[C@H]2COC(=O)N2c2ccccc2C1,-13%[70.6 µM]
COc1ccc(C(=O)N2CCCC(n3cc(-c4nc(C(C)C)no4)nn3)C2)cc1 (stereo unspecified),-1%
O=C(c1cccc(-n2cnnc2)c1)N1CCC[C@H]1c1nc(-c2ccncc2)no1,0%
COCc1cc(=O)n(CC(=O)Nc2ccc(OC)c(Cl)c2)c(N2CCOCC2)n1,-15%
COc1ccc(CN[C@H]2C[C@@H](Cc3cc(CCO)on3)C2(C)C)cc1,3%[70.6 µM]
CC(C)CCN1CCC(N2CCN(C(=O)c3ccsc3)CC2)C1=O (stereo unspecified),1%
CCOc1cc(CN2CCC(C)(c3noc(C4CCOCC4)n3)CC2)ccc1O,1%
O=C1Nc2ccc(Br)cc2C(=O)N2CCN(C(=O)C3CCCCC3)C[C@H]12,4%[70.6 µM]
O=C1NC2(CCCN(Cc3ccc(F)cc3)C2)Oc2ccccc21 (stereo unspecified),-5%[70.6 µM]
CCCCOc1ccc(CN2C[C@@H]3C(=O)N(C)C(=O)[C@@H]3C2)cc1,-21%
O=C(c1ccc2c(c1)OCO2)N1CCN(c2cc(-c3ccc(Cl)cc3)[nH]n2)CC1,?
COc1cccc(CC(=O)N2CCC(N3CC(OCC4CC4)C34CCOCC4)CC2)c1 (stereo unspecified),-3%
COC[C@H]1CCCN1[C@@H]1[C@H](O)[C@H](CO)O[C@@H]1CNCc1ccc(F)cc1,-1%[70.6 µM]
O=C1CCN(C(=O)[C@@H]2CCCN2S(=O)(=O)c2ccccc2)CCCCCCN1,0%
O=C(CCc1cn2ccccc2n1)N[C@H]1[C@@H]2CCO[C@@H]2[C@@H]1C1CCCC1,1%
CSc1ccc(CNC(=O)c2nnn3c2COC(c2ccc(F)cc2)C3)cc1 (stereo unspecified),-2%
O=C1NCC2(CCCN(C(=O)c3cn[nH]c3-n3cnnn3)C2)O1 (stereo unspecified),0%
CC(C)NC(=O)NCC1CCCN(Cc2ccc3c(c2)OCCO3)C1 (stereo unspecified),4%
CCC1=C(C(=O)OC)C(c2cccc(C)c2)N2C(CC(=O)N3CCOCC3)=CSC2=N1 (stereo unspecified),-24%

# An excerpt; count on the stated rates, not on these rows.
